Screens from PubChem.
KCNQ2 pot – potentiators of rat KCNQ2 potassium channel | O88943 | CHO-K1 KCNQ2, FluxOR thallium flux fluorescence; stronger effect = higher value | B-score at 10 µM | hit rate 0.54% among 310,000 | AID 2239;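 active = fluorescence ratio B-score at least 3 SD of library B-scores, with initial fluorescence B-score within 3 SD, cut at about 5.3 in these data; same plate scores as AID 2156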;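 also: B-score of peak minus minimum over baseline fluorescence ratio after K+ and Tl+ stimulus; positive B-score means potentiation of KCNQ2 with more thallium influx and brighter signal; only the inactives scoring about 0 or higher are listed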
KCNQ2 pot baseline – further read-out of KCNQ2 pot, marked with its call; B-score; compound at 10 µM; measured here: initial fluorescence intensity artifact check;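 brightness before thallium and not channel activity; 0 = typical well and far values either way flag optical interference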
Numbers without * were called inactive. Only part of the results is shown. The share of hits here may be higher or lower than overall.

item	KCNQ2 pot	KCNQ2 pot baseline	structure
1	2.2	-2.4	Cn1c(=O)n(CCc2ccccc2)c2ccccc21
2	0.21	0.01	CC12CCC(=O)N1C(C(=O)OCC(=O)Nc1sccc1C#N)CS2 (centres undefined)
3	1.8	1.1	CCOC(=O)CSc1nc(N)c(C#N)c(-c2ccc(OCC)cc2)c1C#N
4	0.52	0.08	Cc1nn(Cc2ccccc2)c(C)c1NC(=O)CSc1nnc(-c2cc(Cl)ccc2O)n1C
5	0.66	-1.3	COC(=O)CSc1snnc1-c1ccc(Cl)c(Cl)c1
6	0.75	0.94	Cc1nc2ccccc2c(=O)n1/N=C/c1ccc(N(C)C)cc1
7	0.2	0.97	Cc1cccc(NS(=O)(=O)c2cccc3nsnc23)c1
8	0.86	-0.57	O=C(O)c1ccc(-c2ccc(O)c(F)c2)cc1
9	0.32	0.01	Cc1c(C(=O)Nc2ccc3c(c2)OCO3)sc2nc(-c3ccccc3)cn12
10	1.1	-0.72	O=C(NCCCc1ccccc1)C(=O)NCC1OCCN1S(=O)(=O)c1cc(F)ccc1F (centres undefined)
11	0.45	-0.17	CCCCn1nnnc1NCc1ccc(N(CC)CC)cc1
12	1.4	-3.4	O=C(COc1ccc([N+](=O)[O-])cc1)NNC(=O)Nc1cccc(F)c1
13	0.17	0.24	Cn1nc(-c2ccc(Cl)cc2)cc1NC(=O)CSCC(=O)O
14	0.01	1.2	CCCCn1c(=N)n(CC(=O)O)c2ccccc21
15	1.3	0.15	CCN(CC)S(=O)(=O)c1ccc(C(=O)NCC(c2ccc(OC)cc2)N2CCOCC2)cc1 (centres undefined)
16	0.07	0	CCN1CCN(c2cc(C)c3cc(NC(=S)N4CCCC4)ccc3n2)CC1
17	4.6	0.77	O=C(NCc1ccc2c(c1)CCO2)Nc1ccccc1
18	0.67	0.36	COc1ccc(N2CCN(CC(=O)Nc3ncc(C)s3)CC2)cc1
19	0.59	-0.55	CCOc1ncccc1C(=O)OCc1ccccc1
20	2.2	-0.38	Cn1c(=O)c(S(=O)(=O)C(C)(C)C)c(O)c2ccccc21
21	0.38	0.31	Cc1cccc(OC(=O)c2ccncc2)c1C
22	0.08	-1.6	NC(=S)NNC(=O)COc1ccccc1O
23	0.37	-0.41	CCOc1ccc(NC(=O)COc2nsnc2N2CCCCC2)cc1
24	0.51	-0.02	CCOC(=O)N1CCN(C(=O)c2ccc(CNS(=O)(=O)c3ccc(OC)cc3)cc2)CC1
25	2	1.1	O=C(CC1CCCCC1)NCCCN1CCOCC1
26	0.35	0.62	N/C(=N\O)c1ccccc1N1CCCCC1
27	0.13	-1.9	CCOc1ccc(C(=O)NCC(=O)N2CCC3(CC2)NCCc2[nH]cnc23)cc1
28	0.48	-1.8	CC1=C/C(=C(\c2cc(C)c(O)c(Br)c2)c2ccccc2S(=O)(=O)O)C=C(Br)C1=O
29	0.53	2.7	CCC(C)NC(=O)c1cn(-c2cccc(C)n2)cn1 (centres undefined)
30	0.8	-1.5	CCc1cccc(C)c1NC(=O)COC(=O)C(NS(=O)(=O)c1ccc(Cl)cc1)C(C)O (centres undefined)

Record cards, as listed above:
`O=C(CC1CCCCC1)NCCCN1CCOCC1` across the screens: KCNQ2 pot = 2; KCNQ2 pot baseline = 1.1
`N/C(=N\O)c1ccccc1N1CCCCC1` across the screens: KCNQ2 pot = 0.35; KCNQ2 pot baseline = 0.62

(continued)
item	KCNQ2 pot	KCNQ2 pot baseline	structure
31	0.58	1.3	Cc1ccc(-c2cccc(CN3CCN(C4CCN(C(C)C)CC4)C(CCO)C3)c2)o1 (centres undefined)
32	1.4	-0.02	Cc1ccc(NC(=O)COS(=O)c2ccc(C)cc2)cc1 (centres undefined)
33	1.3	1.2	O=C(NC1CCCCC1)C1CCN(c2ncccn2)CC1
34	0.17	1.9	Cc1ccc(C)c(NC(=O)C2COc3ccccc3O2)c1 (centres undefined)
35	0.68	0.89	O=C(NCCc1nnc2ccc(NCc3ccc(Cl)cc3)nn12)c1ccccc1
36	0.58	-0.03	COc1cc(CNC2CCCC2)c(Br)cc1OCc1ccccc1
37	0.74	1.1	COC(=O)c1c(-c2ccc(C)cc2)csc1NC(=O)C1CC=CCC1C(=O)O (centres undefined)

In the list so far, twelve contain four or more nitrogen atoms:
item	KCNQ2 pot	KCNQ2 pot baseline	structure
3	1.8	1.1	CCOC(=O)CSc1nc(N)c(C#N)c(-c2ccc(OCC)cc2)c1C#N
4	0.52	0.08	Cc1nn(Cc2ccccc2)c(C)c1NC(=O)CSc1nnc(-c2cc(Cl)ccc2O)n1C
6	0.75	0.94	Cc1nc2ccccc2c(=O)n1/N=C/c1ccc(N(C)C)cc1
11	0.45	-0.17	CCCCn1nnnc1NCc1ccc(N(CC)CC)cc1
12	1.4	-3.4	O=C(COc1ccc([N+](=O)[O-])cc1)NNC(=O)Nc1cccc(F)c1
16	0.07	0	CCN1CCN(c2cc(C)c3cc(NC(=S)N4CCCC4)ccc3n2)CC1
18	0.67	0.36	COc1ccc(N2CCN(CC(=O)Nc3ncc(C)s3)CC2)cc1
23	0.37	-0.41	CCOc1ccc(NC(=O)COc2nsnc2N2CCCCC2)cc1
27	0.13	-1.9	CCOc1ccc(C(=O)NCC(=O)N2CCC3(CC2)NCCc2[nH]cnc23)cc1
29	0.53	2.7	CCC(C)NC(=O)c1cn(-c2cccc(C)n2)cn1 (centres undefined)
33	1.3	1.2	O=C(NC1CCCCC1)C1CCN(c2ncccn2)CC1
35	0.68	0.89	O=C(NCCc1nnc2ccc(NCc3ccc(Cl)cc3)nn12)c1ccccc1
